SARS PLP yeast – SARS-CoV PLP inhibition in yeast | S. cerevisiae expressing SARS-CoV PLpro, growth rescue; control for the full effect not named in the record | Potency, µM (series often up to 32.9 µM), for inactives: at the highest dose activity, positive = growth rescue | 330,000 compounds, 0.19% hits | AID 485353; active means well fitted rising curve with a large enough effect; inconclusive means small, poorly fitted or top-dose-only effect; inactive means no such curve, though single readings can be large or run the other way; further: 0% is about no effect; nearly all actives have a fitted effect of over 55% in size; growth read by luminescence after 48 h
Cruzain Triton – cruzain (T. cruzi) inhibition with detergent. purified cruzain, Z-FR-AMC fluorescence, 0.01% Triton. Potency, µM, inactives show max response, negative = inhibition, hits mostly inhibitors. 200,000 compounds, 0.43% hits;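 further: plate controls were neutral wells for no effect and buffer without enzyme for full effect; nearly all actives have a fitted effect of over 40% in size; top concentration of the series not given in the record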
Target sequence (P25779 123-467 limits assumed): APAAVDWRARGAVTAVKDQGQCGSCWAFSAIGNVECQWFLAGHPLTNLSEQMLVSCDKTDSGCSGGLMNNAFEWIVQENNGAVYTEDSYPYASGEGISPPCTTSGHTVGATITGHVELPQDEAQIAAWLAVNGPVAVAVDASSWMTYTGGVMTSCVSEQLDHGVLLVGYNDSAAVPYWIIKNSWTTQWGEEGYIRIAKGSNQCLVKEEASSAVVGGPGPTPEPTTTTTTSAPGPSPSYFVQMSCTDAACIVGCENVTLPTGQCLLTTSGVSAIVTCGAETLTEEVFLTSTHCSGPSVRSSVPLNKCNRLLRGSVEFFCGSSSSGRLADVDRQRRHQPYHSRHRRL
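Detergent-containing run (0.01% Triton X-100) in acetate buffer pH 5.5 with 5 mM DTT: enzyme at 1.5 nM final, 15 min compound preincubation at room temperature, then 2 uM Z-FR-AMC substrate. Activity taken as 60 s fluorescence increase at 360/450 nm.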
Lassa entry inh – Lassa virus entry inhibition; AID 540256; Lassa virus pseudotype entry inhibition, cell reporter; control for the full effect not named in the record; 300,000 compounds, 1.2% hits; Potency, µM (highest dose often 37.9 µM), inactives show top-dose activity change, negative = inhibition, usual class: inhibitors; active means well fitted inhibition curve with a large enough effect; inconclusive means small, poorly fitted or top-dose-only effect, or effect the other way; inactive means flat fitted curve, though single readings scatter; tested in HEK293 cells; further: on the % scale 0 is the no-effect control and ±100 the full control effect; nearly all actives have a fitted effect of over 50% in size; luciferase read-out
RE007 growth inh – less growth of the S. pombe RE007 Vpr strain | S. pombe RE007 Vpr strain, BacTiter-Glo ATP luminescence, 24 h; control for the full effect not named in the record | Potency, µM (highest dose often 92.2 µM), for inactives: at the highest dose activity change, negative = less growth | 360,000 compounds, 0.21% hits | AID 651644; active = well fitted falling curve with a large enough effect; inconclusive = small, poorly fitted or top-dose-only effect; inactive = no such curve, though single readings can be large or run the other way;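 further: on the % scale 0 is the no-effect control and ±100 the full control effect; nearly all actives have a fitted effect of over 50% in size; the assay follows cell death caused by Vpr and the record does not say whether a fall means rescue or toxicity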
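Fission yeast strain RE007, carrying one chromosomally integrated HIV-1 vpr copy, was seeded at OD 0.01 in PMG+AL medium with 23 nL pinned compound. After 24 h at 30 °C and 99% humidity, viability was read by BacTiter-Glo luminescence.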
NS1 inh – blocks influenza NS1 protein function. S. cerevisiae slowed by influenza A NS1, growth recovery by OD600. Potency, µM (series often up to 46.1 µM), for the others: at the highest dose activity, positive = more growth. 270,000 compounds, 0.4% hits; active means well fitted rising curve with a large enough effect; inconclusive means small, poorly fitted or top-dose-only effect; inactive means no such curve, though single readings can be large or run the other way; further: nearly all actives have a fitted effect of over 50% in size
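Compounds were scored for reversing the slow growth caused by influenza A NS1 in S. cerevisiae, measured by optical density at 600 nm. Assay medium contained 2% galactose at pH 6.0; NS1-free yeast of the same strain were the positive control.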
Cruzain noTriton – cruzain (T. cruzi) inhibition without detergent; P25779; purified cruzain, Z-FR-AMC fluorescence, no detergent; Potency, µM, for the others: max response, negative = inhibition, actives largely listed as inhibitors; 200,000 compounds, 2.3% hits; AID 1476;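 further: plate controls were enzyme without inhibitor for no effect and buffer without enzyme for full effect; nearly all actives have a fitted effect of over 40% in size; top concentration of the series not given in the record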
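Detergent-free condition (0.00005% Triton X-100) in acetate buffer pH 5.5 with DTT. 1.5 nM enzyme and compound were pre-mixed 15 min, then 2 uM Z-FR-AMC substrate added; reaction progress from fluorescence change between first and third reads (60 s).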
Marburg entry inh – inhibitors of Marburg virus binding or cell entry; Marburg virus pseudotyped entry inhibition, cell reporter; control for the full effect not named in the record; about a third of the inactives were read at about 46 µM; Potency, µM (doses to about 37.8 µM), inactives show at the highest dose activity change, negative = inhibition, most hits filed as inhibitors; 300,000 compounds, 1.8% hits; active = well fitted inhibition curve with a large enough effect; inconclusive = small, poorly fitted or top-dose-only effect, or effect the other way; inactive = flat fitted curve, though single readings scatter; tested in HEK293 cells; about a fifth of its hits are not listed in these tables; further: on the % scale 0 is the no-effect control and ±100 the full control effect; luciferase read-out
StopGo reporter – lowers the luciferase signal of an FMDV 2A StopGo reporter; Potency, µM (series often up to 57.9 µM), without a hit: at the highest dose signal change, negative = less light; human cells with a luciferase reporter of 2A StopGo recoding; control for the full effect not named in the record; 410,000 compounds, 1.2% hits; active = well fitted falling curve with a large enough effect; inconclusive = small, poorly fitted or top-dose-only effect; inactive = no such curve, though single readings can be large or run the other way; tested in HEK293T cells; further: on the % scale 0 is the no-effect control and ±100 the full control effect; nearly all actives have a fitted effect of over 45% in size; luciferase light after 4 h
Active calls of the source: *; & = joins results of further samples; [ ] = dose if it differs, or a comment. Unless noted, the call rests on the fitted dose curve; in most records, active means well fitted curve in the direction sought with a large enough effect; inconclusive means small, poorly fitted or top-dose-only effect, or another doubt; inactive means no such curve, though single readings can be large; an effect the other way counts as inactive or inconclusive. Potency means the concentration at half of the fitted maximal effect.

What do the screens show for `O=C1Nc2ccccc2/C1=N/c1sc2c(c1C(=O)NCCc1ccccc1)CCCC2`?
SARS PLP yeast: 2.1%; Cruzain Triton: -8.2%; Lassa entry inh: -11.3%; RE007 growth inh: -9.6%; NS1 inh: -5.1%; Cruzain noTriton: inconclusive; Marburg entry inh: -11.9%; StopGo reporter: 1.4%

How did CCOc1ccc(Nc2nc(Cc3nnc(SCC(N)=O)o3)cs2)cc1 do in these assays?
SARS PLP yeast: 4.1%; Cruzain Triton: 2.5%; Lassa entry inh: inconclusive; RE007 growth inh: -13.8%; NS1 inh: 2.9%; Cruzain noTriton: 6.3%; Marburg entry inh: -24.4%; StopGo reporter: 11.1%

Results for CC(C#N)OC(=O)c1cccnc1SCC(=O)Nc1ccc2c(c1)OCO2 (stereo not drawn) ?
SARS PLP yeast: -0.4%; Lassa entry inh: -8.7%[46.1 µM]; RE007 growth inh: 1.1%; Marburg entry inh: inconclusive; StopGo reporter: -7.3%

Results for CC1CCCC(NC(=O)C2CCN(C(=O)Nc3ccccc3)CC2)C1C (stereo not drawn) ?
SARS PLP yeast: 3.8%; Lassa entry inh: -2.8%; RE007 growth inh: -3.2%; Marburg entry inh: inconclusive; StopGo reporter: -19.9%

What do the screens show for `CN(C(=O)COC(=O)c1ccc2c(c1)NC(=O)CS2)C1CCS(=O)(=O)C1` (stereo not drawn)?
SARS PLP yeast: 3.7%; Cruzain Triton: -11.4%; Lassa entry inh: 20.3%; RE007 growth inh: -3.1%; NS1 inh: inconclusive; Cruzain noTriton: -2.9%; Marburg entry inh: -0.8%; StopGo reporter: 62.6%[activator]

How did Cc1cccc(S(=O)Cc2ccc(C(=O)N3CCOCC3)o2)c1 (stereo not drawn) do in these assays?
SARS PLP yeast: -4.5%; RE007 growth inh: 7.7%; NS1 inh: 7.6%; StopGo reporter: -5.3%

What do the screens show for `COc1ccc(-c2cc(C)no2)cc1S(=O)(=O)N1CCN(c2ccc([N+](=O)[O-])cc2)CC1`?
SARS PLP yeast: -4.0%; RE007 growth inh: 7.0%; NS1 inh: 5.0%; StopGo reporter: -24.5%

What do the screens show for `C/C(=N\NC(=O)c1ccc2c(c1)OCO2)c1ccc(C(=O)O)s1`?
SARS PLP yeast: -1.6%; Lassa entry inh: -19.2%; RE007 growth inh: -4.9%; NS1 inh: 4.3%; Marburg entry inh: 0.2%[46.1 µM]; StopGo reporter: 15.5%

Results for CCN1CCCC(CO)(Cc2ccccc2)C1 (stereo not drawn) ?
SARS PLP yeast: 1.0%; Lassa entry inh: -1.0%; RE007 growth inh: -2.2%; NS1 inh: -0.4%; Marburg entry inh: inconclusive; StopGo reporter: -3.6%

What do the screens show for `C=CCOC(=O)/C(=C/c1ccco1)NC(=O)/C=C/c1ccccc1`?
SARS PLP yeast: -21.6%; Cruzain Triton: 28.2µM*; Lassa entry inh: 3.3%; RE007 growth inh: -1.7%; NS1 inh: 5.5%; Cruzain noTriton: -28.1%; Marburg entry inh: -8.8%; StopGo reporter: 8.3%

What do the screens show for `O=C(O)c1cccnc1SC1CC(=O)N(CCc2ccccc2)C1=O` (stereo not drawn)?
SARS PLP yeast: 1.6%; Cruzain Triton: 1.7%; Lassa entry inh: -10.6%; RE007 growth inh: 5.7%; NS1 inh: -2.0%; Cruzain noTriton: -5.2%; Marburg entry inh: 26.5%; StopGo reporter: -0.2%

Results for CCc1cccc(C)c1NC(=O)CNCc1ccccc1 ?
SARS PLP yeast: 3.3%; Cruzain Triton: 4.1%; Lassa entry inh: 2.8%; RE007 growth inh: 27.0%; NS1 inh: -3.1%; Cruzain noTriton: 8.1%; Marburg entry inh: -1.9%; StopGo reporter: -23.6%

What do the screens show for `Cc1ccc2nc(/C(C#N)=C\c3ccc([N+](=O)[O-])o3)[nH]c2c1`?
SARS PLP yeast: -30.9%; Cruzain Triton: -7.2%; Lassa entry inh: 3.26µM*; RE007 growth inh: inconclusive; NS1 inh: -138.5%; Cruzain noTriton: inconclusive; Marburg entry inh: 18.3µM*; StopGo reporter: inconclusive

Results for O=c1[nH]c(/C(Cl)=C/c2c(F)cccc2Cl)nc2cc(Cl)ccc12 ?
SARS PLP yeast: inconclusive; Cruzain Triton: -3.8%; Lassa entry inh: -0.6%; RE007 growth inh: -18.9%; NS1 inh: 0.0%; Cruzain noTriton: inconclusive; Marburg entry inh: -7.7%; StopGo reporter: -9.6%

How did O=C(CCCc1nc2ccccc2s1)NC(c1ccccc1)c1ccccc1 do in these assays?
SARS PLP yeast: 0.1%; Cruzain Triton: 1.9%; Lassa entry inh: -2.6%; RE007 growth inh: 14.5%; NS1 inh: 2.9%; Cruzain noTriton: -2.6%; Marburg entry inh: 12.9%; StopGo reporter: 1.1%

How did CCn1c(CCCc2ccc(OC)c(C)c2)n[nH]c1=S do in these assays?
SARS PLP yeast: 0.0%; RE007 growth inh: 9.4%; NS1 inh: 0.9%; StopGo reporter: 3.9%

How did COc1ccccc1/C=C/C(=O)NC(=S)N(C)C1CCCCC1 do in these assays?
SARS PLP yeast: -1.2%; Cruzain Triton: -3.8%; Lassa entry inh: -0.5%; RE007 growth inh: -4.5%; NS1 inh: 23.5%; Cruzain noTriton: -24.5%; Marburg entry inh: -6.9%; StopGo reporter: -14.2%

Results for COc1ccccc1C(=O)NC(=O)COc1ccc([N+](=O)[O-])cc1 ?
SARS PLP yeast: -8.3%; Lassa entry inh: 22.2%; RE007 growth inh: 18.6%; Marburg entry inh: 16.9%; StopGo reporter: -17.9%

Results for COc1ccc(NC2=NC(C)(CO)CS2)cc1 (stereo not drawn) ?
SARS PLP yeast: 1.1%; RE007 growth inh: 0.2%; NS1 inh: -0.6%; StopGo reporter: 50.2%[activator]

Results for COc1ccc(Cl)cc1NC(=O)CN1CCCC1 ?
SARS PLP yeast: -5.9%; Lassa entry inh: 22.0%; RE007 growth inh: -2.7%; Marburg entry inh: inconclusive; StopGo reporter: -14.4%

What do the screens show for `O=C(CCn1cnc2ccccc21)N/N=C/c1ccc(O)cc1`?
SARS PLP yeast: 0.5%; Cruzain Triton: -4.0%; Lassa entry inh: inconclusive; RE007 growth inh: -20.8%; NS1 inh: 15.8%; Cruzain noTriton: 3.6%; Marburg entry inh: -2.1%; StopGo reporter: -7.1%

What do the screens show for `CCOc1cccc(CC(=O)NCc2ccc3c(c2)CCN3C(C)=O)c1OCC`?
Cruzain Triton: 6.0%; Lassa entry inh: 1.8%[46.1 µM]; Cruzain noTriton: 3.4%; StopGo reporter: -12.7%

Results for COc1cccc(C(C(=O)NC2CCCC2)N(Cc2cccnc2)C(=O)Cc2cccs2)c1 (stereo not drawn) ?
SARS PLP yeast: -1.1%; Lassa entry inh: -0.1%; RE007 growth inh: 6.5%; NS1 inh: 9.1%; Marburg entry inh: -14.1%[46.1 µM]; StopGo reporter: 4.9%

What do the screens show for `Cc1cc(C)n2nc(C(=O)N/N=C/c3ccccc3Cl)nc2n1`?
SARS PLP yeast: 0.0%; Lassa entry inh: -3.2%; RE007 growth inh: 0.8%; NS1 inh: 3.6%; StopGo reporter: 7.0%

How did CC(=O)c1ccc(NC(=O)C(Cc2ccccc2)NC(=O)c2ccco2)cc1 (stereo not drawn) do in these assays?
SARS PLP yeast: 5.1%; Cruzain Triton: -0.8%; Lassa entry inh: 1.7%; RE007 growth inh: 4.2%; NS1 inh: -7.3%; Cruzain noTriton: -3.0%; Marburg entry inh: -9.4%; StopGo reporter: 28.4%

How did COc1ccc(NC(=O)CN2C(=O)NC(c3ccccc3)(c3ccccc3)C2=O)cc1 do in these assays?
SARS PLP yeast: -1.7%; Lassa entry inh: inconclusive; RE007 growth inh: 2.4%; NS1 inh: 15.6%; Marburg entry inh: inconclusive; StopGo reporter: 0.0%

Results for COc1ccc(-c2[nH]ncc2CNC(C)c2ccccc2Cl)cc1F (stereo not drawn) ?
SARS PLP yeast: 1.0%; RE007 growth inh: -9.7%; NS1 inh: -1.6%; StopGo reporter: 0.0%

Results for O=C(COc1cccc2ccccc12)N/N=C/c1ccco1 ?
SARS PLP yeast: 1.9%; Lassa entry inh: 8.2%[46.1 µM]; RE007 growth inh: 8.9%; NS1 inh: -14.8%; Marburg entry inh: 22.1%[46.1 µM]; StopGo reporter: -7.5%

How did CCOC(=O)c1ccc2nc(Nc3nc4ccc(F)cc4s3)sc2c1 do in these assays?
SARS PLP yeast: -0.5%; Cruzain Triton: -0.9%; Lassa entry inh: -13.4%; RE007 growth inh: -6.6%; NS1 inh: -4.9%; Cruzain noTriton: 16.2%; Marburg entry inh: inconclusive; StopGo reporter: inconclusive

How did CN(C(=O)c1cccc(C#N)c1)c1nnc(C2CCOC2)s1 (stereo not drawn) do in these assays?
SARS PLP yeast: -0.6%; Cruzain Triton: 6.3%; Lassa entry inh: -14.5%; RE007 growth inh: 27.2%; NS1 inh: -0.7%; Cruzain noTriton: 2.9%; Marburg entry inh: 19.1%[46.1 µM]; StopGo reporter: -6.8%

Results for CCCn1nnc(NC(=O)c2ccccc2Br)n1 ?
SARS PLP yeast: 3.1%; Cruzain Triton: -0.3%; Lassa entry inh: 13.4%; RE007 growth inh: 0.3%; NS1 inh: 7.4%; Cruzain noTriton: -5.5%; Marburg entry inh: 9.9%

What do the screens show for `O=C(O)c1ccccc1NS(=O)(=O)c1ccccc1C(F)(F)F`?
SARS PLP yeast: 4.4%; Cruzain Triton: 6.5%; Lassa entry inh: -3.6%; RE007 growth inh: 15.7%; NS1 inh: 11.9%[9.22 µM]; Cruzain noTriton: -8.0%; Marburg entry inh: 2.0%&2.0%; StopGo reporter: 9.1%

Results for C/C=C/c1ccc(OCC(=O)OCC)c(OC)c1 ?
SARS PLP yeast: -2.7%; Lassa entry inh: 9.8%[46.1 µM]; RE007 growth inh: -16.2%; NS1 inh: -1.8%; Marburg entry inh: inconclusive; StopGo reporter: -10.9%

Results for CC(C)(C)C(=O)Nc1ccc2oc(-c3cc(F)c(F)cc3Cl)nc2c1 ?
SARS PLP yeast: -22.9%; Cruzain Triton: -2.2%; Lassa entry inh: inconclusive; RE007 growth inh: -1.1%; NS1 inh: -10.4%; Cruzain noTriton: 1.9%; Marburg entry inh: inconclusive; StopGo reporter: 44.8%[activator]

What do the screens show for `NC(=O)c1ccc[n+](CC(=O)c2ccc(NC(=O)c3ccccc3)cc2)c1`?
SARS PLP yeast: -1.3%; Lassa entry inh: inconclusive; RE007 growth inh: 11.5%; NS1 inh: inconclusive; Marburg entry inh: inconclusive; StopGo reporter: 14.1%

What do the screens show for `O=S(=O)(NCc1ccccc1Cl)c1ccc(N2CCCCS2(=O)=O)cc1`?
Cruzain Triton: -3.0%; Lassa entry inh: -0.7%[46.1 µM]; Cruzain noTriton: -9.2%; StopGo reporter: -0.4%
